Screening results (PubChem)
Polio RdRp inh: poliovirus RdRp elongation inhibitors, primary screen, biochemical, fluorescence polarization, total intensity. Genome polyprotein (Poliovirus type 1 (strain Mahoney)), P03300. poliovirus polymerase elongation; active compounds read low. % elongation, % (compound at 16.7 µg/mL). actives 0.66% (n = 150,000). AID 588519, 2011; in the data active means % elongation below about 90%; further: some results filed as inactive read as strong as hits
Target sequence (P03300 1749-2209 limits assumed): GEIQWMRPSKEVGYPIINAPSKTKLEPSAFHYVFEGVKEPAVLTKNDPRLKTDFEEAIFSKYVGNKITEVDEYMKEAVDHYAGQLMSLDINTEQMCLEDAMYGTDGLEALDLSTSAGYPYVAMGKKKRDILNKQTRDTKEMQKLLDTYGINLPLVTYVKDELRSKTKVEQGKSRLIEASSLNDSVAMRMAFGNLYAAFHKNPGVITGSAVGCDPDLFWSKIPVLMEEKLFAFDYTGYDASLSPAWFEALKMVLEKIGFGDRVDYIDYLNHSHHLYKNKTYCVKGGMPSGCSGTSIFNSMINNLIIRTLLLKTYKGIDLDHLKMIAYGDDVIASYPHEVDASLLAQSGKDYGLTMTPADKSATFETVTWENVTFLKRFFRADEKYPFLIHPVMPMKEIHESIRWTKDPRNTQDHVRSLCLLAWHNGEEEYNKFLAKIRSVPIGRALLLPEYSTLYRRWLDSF
Mtb MenB inh: M. tuberculosis MenB inhibitors, primary screen, biochemical, absorbance; MenB enzyme assay, absorbance read-out; some hits fall short of the stated cut; inhibition, %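 (about 12 µg/mL by stock and volumes)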; actives 0.43% (n = 100,000);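 active means mean of two replicates above 30%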;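 further: 0% = no compound and 100% = wells with inactive enzyme; the first replicate is given; strong numbers were not always called active; inactives centre near -10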
Target sequence (P9WNP5 whole entry, looked up): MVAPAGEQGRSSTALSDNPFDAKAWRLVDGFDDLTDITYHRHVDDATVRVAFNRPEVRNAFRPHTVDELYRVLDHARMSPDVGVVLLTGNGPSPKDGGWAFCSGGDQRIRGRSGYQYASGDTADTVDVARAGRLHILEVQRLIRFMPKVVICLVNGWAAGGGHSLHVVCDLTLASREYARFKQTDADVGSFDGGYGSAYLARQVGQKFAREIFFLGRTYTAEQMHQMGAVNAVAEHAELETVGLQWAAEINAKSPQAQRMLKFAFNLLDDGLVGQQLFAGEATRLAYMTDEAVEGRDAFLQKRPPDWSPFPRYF
Mtb MbtI inh: MbtI salicylate synthase inhibitors, primary screen, biochemical, fluorescence intensity; purified MbtI enzyme, fluorescence intensity read-out; actives 0.89% (n = 100,000); P9WFX0; inhibition, %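 (about 17 µg/mL by stock and volumes)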;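 active means above 50% in both replicates, above 80% if mildly self-fluorescent; inactive means the rest, strongly fluorescent compounds included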;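 further: 0% = mean of negative and 100% = mean of positive controls; one replicate is shown; some compounds called inactive have numbers as strong as hits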
Polio RdRp inh intensity: recorded beside Polio RdRp inh, whose call it bears; % elongation; measured here: total intensity read-out; formula for this scale not given here;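 total fluorescence in place of polarization; lower means less elongation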
* = called active by the depositor; i = inactive; x = not tested or not shown; & = joins results of further samples.

SMILES	Polio RdRp inh	Polio RdRp inh intensity	Mtb MenB inh	Mtb MbtI inh
CN(C)CCN1C(=O)C(=O)/C(=C(/O)c2ccc(S(=O)(=O)N(C)C)cc2)C1c1ccccc1 (configuration not stated)	101	104	26	x
COc1ccc(OC)c(/C=C\C(=O)NCC(=O)O)c1	100	102	-7	3
C/C(=N\NC(=O)Cc1nc2ccccc2n1C)c1ccc(S(=O)(=O)NCCC(=O)O)cc1	109	106	-20	3
O=C(CC(SCc1ccco1)c1ccc(F)cc1)c1cccs1 (configuration not stated)	105	105	-24	x
CCOC(=O)c1sc(COc2ccc3nonc3c2)nc1C	104	104	-16	-4
CCC(=O)N1N=C(c2cccs2)CC1c1cccs1 (configuration not stated)	103	104	1	i
CC(=O)NC(C)c1nc2ccccc2n1Cc1ccccc1 (configuration not stated)	103	107	-20	-14
CC(=O)N1CCC(N(C(=O)Nc2ccc(Cl)cc2)C2CCCCC2)CC1	100	103	8	-11
N#Cc1ccsc1NC(=O)CCS(=O)(=O)c1ccccc1	100	106	-11	22
COc1ccc(-c2n[nH]c(=S)n2CCC(=O)NC(C)c2ccccc2)cc1 (configuration not stated)	105	111	-28	25
COc1ccc(C(=O)OCC(N)=O)cc1S(=O)(=O)N1CCCc2ccccc21	102	108	-2	-13
CC1(C)C=Cc2cc(OCC(=O)O)ccc2O1	101	102	6	-13
COc1ccc(C2C(C(=O)NCc3cccnc3)CCC(=O)N2c2cc(OC)c(OC)c(OC)c2)cc1 (configuration not stated)	101	102	-21	-5
NCCC(O)C(=O)NC1CC(N)C(OC2OC(CN)C(O)[C@H](O)[C@@H]2N)[C@H](OC2O[C@H](CO)[C@@H](O)[C@@H]2O)[C@@H]1O (some centres not stated)	102	97	1	-3
CCOC(=O)c1sc(NC(C)=O)c(C#N)c1C	101	102	-7	x
COC(CN=CC1=C(O)CC(C)(C)CC1=O)OC	103	101	-22	26
O=C(O)CCCC[C@H]1SC[C@H]2NC(=O)N[C@H]21	104	115	-15	x
Cc1nn(-c2ccccc2)c2c1C(c1ccc(Cl)cc1)N1C(=N2)C(=O)Nc2ccccc21 (configuration not stated)	104	109	-59	1
C/C(=N\NC(N)=S)C1=CC(C)(C)CCC1	110	106	-56	23
CCc1ccc2cc(-c3ccccc3)cn2c1	104	113	-5	x
O=C1c2ccccc2C(=O)c2c1oc1c3c(ccc21)OCN(CCCN1CCOCC1)C3	86*	83*	-14	-3
Cc1cc(C)c(S(=O)(=O)N2CCSc3ccccc32)c(C)c1	119	138	-31	1
Cn1nnnc1SCC(=O)N=C1NC(=O)CS1	102	99	-25	-3
O=C(Cc1n[nH]c(=O)c2ccccc12)OCc1ccc(F)cc1	99	99	-44	4
O=C(Nc1ccc2c(c1)OCO2)c1cc(-c2ccccc2)oc1C(F)(F)F	101	100	-7	-4
CCc1c(C)[nH]c2ccccc2c1=O	108	110	-2	x
O=C(CSc1nnc(-c2ccc(S(=O)(=O)N3CCOCC3)cc2)o1)c1c[nH]c2ccccc12	101	106	-9	-8
O=S(=O)(c1ccc(Nc2ccc(F)cc2)nc1)N1CCCC1	103	111	0	-51
CNS(=O)(=O)c1cccc(C(=O)NCCCN2CCCC2=O)c1	101	108	3	-7
COC(=O)c1ccc(CSc2ccc3nnc(-c4ccc(Cl)cc4)n3n2)o1	103	106	-6	13
COc1ccc(OC)c(S(=O)(=O)/N=C/N(C)C)c1	103	104	-7	0
N#Cc1nccnc1Oc1cccc(C(F)(F)F)c1	101	105	-17	-7
CC1CCN(C(=O)Cn2nnc3ccccc3c2=O)CC1	103	102	11	41
Cc1ccc(N2C(N)=C(C(N)=O)C(c3ccc(Cl)cc3)C3=C2CC(C)(C)CC3)cc1 (configuration not stated)	113	114	4	x
CC(NC(=O)Nc1c[nH]c2ccccc2c1=O)c1ccncc1 (configuration not stated)	103	101	-35	89
CC(=O)NS(=O)(=O)c1ccccc1	100	108	-3	-8
COc1ccccc1CC(=O)Nc1cccc(NC(C)=O)c1	99	105	-1	x
COc1ccc(CNC(=O)CN2C(=O)CCc3ccccc32)cc1	102	98	-43	6
O=C(Cn1nc(-c2ccccc2)oc1=O)OCC(=O)c1ccccc1	102	104	-8	-5
CN(C)c1ccc(Cc2ccc(N(C)C)cc2)cc1	103	102	-8	-10

Entries of single compounds, quoted from the list.
`CC(=O)NC(C)c1nc2ccccc2n1Cc1ccccc1` (configuration not stated) reads Polio RdRp inh = 103; Polio RdRp inh intensity = 107; Mtb MenB inh = -20; Mtb MbtI inh = -14
`CCC(=O)N1N=C(c2cccs2)CC1c1cccs1` (configuration not stated) reads Polio RdRp inh = 103; Polio RdRp inh intensity = 104; Mtb MenB inh = 1; Mtb MbtI inh = i

(list continues)
SMILES	Polio RdRp inh	Polio RdRp inh intensity	Mtb MenB inh	Mtb MbtI inh
Nn1c(CSCc2ccccc2)nnc1CSCc1ccccc1	106	108	-12	x
CCCn1cnc2cc(NCc3ccco3)ccc21	98	100	-11	115
CCN(Cc1cc2cc3c(cc2[nH]c1=O)OCCO3)c1ccc2c(c1)OCCO2	101	105	-12	29
CCOC(=O)/C(=N\Nc1ccccc1C(F)(F)F)N1CCOCC1	102	103	-14	18
CSC(=S)N(c1ccccc1)c1ccccc1	102	103	x	-7
CCC(Cc1ccccc1)NC(=O)C1CCCN(c2nnc(-n3cccc3)s2)C1 (configuration not stated)	101	102	-18	-1
CN(Cc1ccccc1)c1ncnc2sccc12	111	103	8	2
CC(C)(C)C(=O)NC(=S)N1CCc2ccccc21	102	106	-20	11
CCCNS(=O)(=O)c1ccc(NC(=O)C2CC(=O)N(c3ccc(OCC)cc3)C2)cc1 (configuration not stated)	102	102	-54	-7
Cc1noc(C)c1S(=O)(=O)NCc1ccc2c(c1)OCO2	106	104	-2	-3
CCCCC[C@H](O)/C=C/[C@@H]1[C@@H](CC(=O)CCCCC(=O)O)[C@@H](O)C[C@H]1O	100&100	102&101	3	-26
CCn1cc(C(=O)NCCC(C)C)c(=O)c2cc(S(=O)(=O)N3CCCCC3)ccc21	104	104	-4	2
Oc1cccc(N=Cc2sc(=S)n(C3CCCCC3)c2O)c1	99	129	-183	4
CCc1ccc(NC(=O)NCc2c(-n3cccc3)sc3c2CCCC3)cc1	102	103	14	-12
Cc1csc(=O)n1CC(=O)NC1CCCCCC1	100	104	0	-10
Cc1cc(NC(=O)CN2CCCCC2)nc2c1c(=O)oc1ccccc12	100	104	-5	4
COc1ccccc1N1CCN(C(=O)/C=C/c2c(Cl)nc3sccn23)CC1	101	95	-1	-4
CCN(CC)C(=O)c1oc2ccccc2c1NC(=O)C(C)C	101	101	-7	-11
O=C(c1cn(-c2ccccc2)nc1-c1cccs1)N(CCO)Cc1ccccc1	104	106	x	-4
CC(C)(C)c1cc(CN2CCCC2)cc(C(C)(C)C)c1O	99	101	-1	1
COc1ccc(CNC(=O)c2cc(=O)[nH]c3ccc(S(=O)(=O)N4CCCCC4C)cc23)cc1 (configuration not stated)	100	108	7	-3
O=C1CSC(c2cccs2)N1c1ccccc1 (configuration not stated)	102	105	-20	i
CSc1nc(C)cc(=O)[nH]1	99	100	x	1
NC(=O)C1CCN(C(=O)c2cc(-c3ccccc3)on2)CC1	101	103	17	7
O=C(OC1CCOC1=O)c1cccc(Cl)c1Cl (configuration not stated)	103	107	x	-5
Clc1ccc(-c2csc3[n+]2CCS3)cc1	103	108	x	9
CCC(=O)Oc1ccc2c(C(F)(F)F)cc(=O)oc2c1C	96	112	7	5
CC(Nc1nc(-c2ccccc2)c2cc(Br)ccc2n1)C(=O)O (configuration not stated)	103	95	-39	-3
Cc1ccc(C(=O)NC(C)Cc2cccs2)c(C)c1 (configuration not stated)	101	106	x	-9
Cc1ccc(C(F)(F)C(F)(F)c2ccccc2-c2nn[nH]n2)cc1	108	113	2	x
CCN(CC)S(=O)(=O)c1ccc(Sc2nc(C)cs2)nc1	100	103	-2	-5
CCN(CC(=O)NC1CCS(=O)(=O)C1)C(=O)Cc1ccccc1F (configuration not stated)	105	103	-22	-10
OC1(c2ccccc2)CCN(Cc2ccccc2)CC1	101	103	1	-10
CC1CCN(C(=S)Nc2ccccc2)CC1	101	103	-14	-4
CCCc1c(C)[nH]c2nc3ccccc3n2c1=O	108	109	-19	x
CCOc1ncccc1C(=O)Nc1cccc(Cl)c1Cl	103	104	x	-2
CCc1ccc(C(=O)Nc2ccc(N3CCCC3)cc2)cc1	101	103	3	-1
CC(C)(Oc1ccc(Cl)cc1)C(=O)Oc1ccc(-c2nnco2)cc1	x	x	-22	-20
COc1cc2c(cc1OC)CN(Cn1cnc3ccccc31)CC2	102	104	-9	-4
O=C1/C(=C/c2ccc(O)cc2)SC(=S)N1CCc1ccccc1	126	146	-74	1
O=C(/C=C/c1ccccc1F)CN1C(=O)c2ccccc2C1=O	101	105	-13	-1
O=C(Nc1c2c(nn1-c1ccccc1)CSC2)C1CC(=O)N(c2ccccc2)C1 (configuration not stated)	99	102	-10	2
CCOC(=O)Cn1c(=O)oc2cc(S(=O)(=O)N3CC(C)CC(C)C3)ccc21 (configuration not stated)	102	103	5	-3
O=C1N(CN2CCCCC2)c2ccc(Br)cc2C12OCCO2	101	98	7	-10
O=C(N[C@@H](Cc1ccccc1)C(=O)Nc1nccs1)c1cccs1	105	109	5	1
CC1CCCCN1C(=O)CSc1ccc2ccccc2c1 (configuration not stated)	103	106	x	-4
CNC(=O)c1ccsc1NC(=O)CN1C(=O)c2ccccc2C1=O	102	107	-25	-5
Cc1oc(C(C)(C)C)cc1C(=O)NC1Cc2ccccc2C1	101	101	-13	-10
O=C(c1cnc2c3ccccc3nn2c1)c1ccccc1O	45	238	-6	-43
S=c1[nH]nc(CCCc2n[nH]c(=S)o2)o1	91	97	1	19
C(=N\c1nc2ccccc2[nH]1)/N(c1ccccc1)c1ccccc1	103	110	-13	x
COc1cc(C2=C/C(=C3/N=C(c4ccco4)OC3=O)c3ccccc3O2)cc(OC)c1OC	101	102	-13	-8
Cc1cc(C)nc(-n2nc(C)c3c2NC(=O)CC3c2ccccc2)n1 (configuration not stated)	103	103	-4	12
Cc1ccc(C(CNC(=O)CCc2ccccc2)N2CCN(C)CC2)cc1 (configuration not stated)	100	106	-21	-1
O=C(CCNS(=O)(=O)c1ccc2[nH]c(=O)ccc2c1)NC1CCCc2ccccc21 (configuration not stated)	103	104	-4	45
CCOC(=O)c1sc(NC(=O)C(CC)OC(=O)c2c3c(nc4ccccc24)CCC3)nc1C (configuration not stated)	107	106	-15	x
COc1ccc(-c2nc(N)ncc2-c2ccc3c(c2)OCCCO3)c(O)c1	100	102	-3	-2
CN1CCc2c(sc3c2C(=O)NC(c2ccc(OC(=O)c4ccccc4Cl)cc2)N3)C1 (configuration not stated)	104	107	-14	6
CC1CCN(C(=O)C23CCC(C)(C(=O)O2)C3(C)C)CC1 (configuration not stated)	102	101	8	1
CC(OC(=O)c1cccs1)C(=O)NCC1CCCO1 (configuration not stated)	102	101	-23	-7
Additional entries follow.
SMILES	Polio RdRp inh	Polio RdRp inh intensity	Mtb MenB inh	Mtb MbtI inh
CC1(C)Cc2nc3n[nH]c(N)c3cc2CO1	101	100	-5	2
Cc1c(C(=O)N=Nc2c(O)n(CC(=O)O)c3ccccc23)nnn1-c1nonc1N	101	103	-8	-1
CCc1ccc(C(=O)NC(CC(C)C)C(=O)O)cc1 (configuration not stated)	98	102	8	0
O=C(c1ccccc1)C(Nc1ccccn1)c1ccccc1 (configuration not stated)	103	107	-7	-8
COc1ccc(CN2CCN(Cc3ccccc3)CC2)cc1	101	102	12	-11
CCn1c(CNC(=O)c2ccco2)nnc1SC(C)C(=O)Nc1nc(C)c(C)s1 (configuration not stated)	102	109	-30	1
Cc1ccc(S(=O)(=O)NCCSc2nncn2-c2ccc(C)c(Cl)c2)cc1	103	100	-13	6
CCOC(=O)c1sc(NC(=O)COc2ccc3c(c2)OCO3)nc1C	103	100	-60	18
COC(=O)c1ccc(/N=C/c2cc(C)n(C3CCCC3)c2C)s1	99	101	-6	18
COc1ccc(C2OC(=O)CC2C(=O)NC2CCCC(C)C2C)cc1OC (configuration not stated)	102	101	-24	0
Cc1ccc(NC(=S)Nc2cccc(C(F)(F)F)c2)cc1NS(C)(=O)=O	98	94	-32	7

In the list so far, these have a thiophene ring, fused or not:
SMILES	Polio RdRp inh	Polio RdRp inh intensity	Mtb MenB inh	Mtb MbtI inh
O=C(CC(SCc1ccco1)c1ccc(F)cc1)c1cccs1 (configuration not stated)	105	105	-24	x
CCC(=O)N1N=C(c2cccs2)CC1c1cccs1 (configuration not stated)	103	104	1	i
N#Cc1ccsc1NC(=O)CCS(=O)(=O)c1ccccc1	100	106	-11	22
CCOC(=O)c1sc(NC(C)=O)c(C#N)c1C	101	102	-7	x
CN(Cc1ccccc1)c1ncnc2sccc12	111	103	8	2
CCc1ccc(NC(=O)NCc2c(-n3cccc3)sc3c2CCCC3)cc1	102	103	14	-12
O=C(c1cn(-c2ccccc2)nc1-c1cccs1)N(CCO)Cc1ccccc1	104	106	x	-4
O=C1CSC(c2cccs2)N1c1ccccc1 (configuration not stated)	102	105	-20	i
Cc1ccc(C(=O)NC(C)Cc2cccs2)c(C)c1 (configuration not stated)	101	106	x	-9
O=C(N[C@@H](Cc1ccccc1)C(=O)Nc1nccs1)c1cccs1	105	109	5	1
CNC(=O)c1ccsc1NC(=O)CN1C(=O)c2ccccc2C1=O	102	107	-25	-5
CN1CCc2c(sc3c2C(=O)NC(c2ccc(OC(=O)c4ccccc4Cl)cc2)N3)C1 (configuration not stated)	104	107	-14	6
CC(OC(=O)c1cccs1)C(=O)NCC1CCCO1 (configuration not stated)	102	101	-23	-7
COC(=O)c1ccc(/N=C/c2cc(C)n(C3CCCC3)c2C)s1	99	101	-6	18
